Screening results deposited in PubChem BioAssay by National Center for Advancing Translational Sciences (NCATS).
Six1-Eya2 blk: inhibitors of human Six1/Eya2 interaction | AID 651725 | AlphaScreen GST-Six1/His-Eya2 binding, biochemical; stronger effect = lower value; control for the full effect not named in the record | actives 0.56% (n = 360,000) | activity change, % (test concentration not listed); in the data active = activity change below about -65%; inconclusive = about -30% to -65%; inactive = above about -30%; further: on the % scale 0 is the no-effect control and ±100 the full control effect; compound concentration not given in the record
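Homogeneous AlphaScreen proximity assay pairing GST-Six1 with His-tagged Eya2 (added as 5X mix: 250 nM and 500 nM) in 50 mM Tris pH 8.0, 300 mM NaCl, 1 mM TCEP. Glutathione donor and nickel acceptor beads; 1 h, 37 °C, dark.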
TRPML1 blocker: blocks the human TRPML1 channel; TRPML1-inducible cells, Ca2+ dye fluorescence, FDSS; stronger effect = lower value; inhibition of EC80 agonist-evoked calcium signal; activity change, negative = inhibition, % (concentration not given with the values); actives 0.02% (n = 390,000); AID 624415; in the data active means activity change below about -50%; inconclusive means about -30% to -50%; inactive means above about -30%;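 further: stimulus is agonist 54-4 at its EC80 concentration; on the % scale 0 is the no-effect control and ±100 the full control effect; compound concentration not given in the record; the text of the record puts the active cut at -80%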
Target sequence (Q9GZU1 whole entry, looked up): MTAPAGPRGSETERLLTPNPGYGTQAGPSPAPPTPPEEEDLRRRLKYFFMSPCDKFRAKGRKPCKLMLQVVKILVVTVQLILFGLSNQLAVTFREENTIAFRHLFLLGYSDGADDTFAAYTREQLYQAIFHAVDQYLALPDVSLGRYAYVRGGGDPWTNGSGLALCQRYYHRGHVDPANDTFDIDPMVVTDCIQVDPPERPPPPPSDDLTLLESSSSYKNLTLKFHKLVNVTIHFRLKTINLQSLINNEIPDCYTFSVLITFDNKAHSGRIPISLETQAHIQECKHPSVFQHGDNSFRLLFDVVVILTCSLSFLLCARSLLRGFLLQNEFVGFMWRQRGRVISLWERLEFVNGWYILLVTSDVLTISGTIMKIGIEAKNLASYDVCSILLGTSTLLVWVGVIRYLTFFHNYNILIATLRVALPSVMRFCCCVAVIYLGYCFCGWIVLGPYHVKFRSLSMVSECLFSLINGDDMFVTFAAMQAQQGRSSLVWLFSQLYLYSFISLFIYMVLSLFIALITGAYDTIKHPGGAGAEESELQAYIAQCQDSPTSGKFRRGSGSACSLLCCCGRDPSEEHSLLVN
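Tet-induced TRPML1-DL cells loaded with Ca8 no-wash calcium dye were read kinetically on FDSS. Compound addition was followed by EC80 agonist 54-4 (4 uM final); inhibition was read over 110 s.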
TRPV1 PAM: potentiators of human vanilloid receptor 1 (TRPV1); potentiation, % at 8.33 µM; actives 0.02% (n = 320,000); Q8NER1; TRPV1-expressing cells, Fluo-8 calcium influx, capsaicin EC20 potentiation; host cell line not named in the record; control for the full effect not named in the record; active means potentiation above 80%; inconclusive means 30% to 80%; inactive means below 30%; further: 0% is about no effect
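Cells expressing TRPV1 were dye-loaded with Fluo-8 and read kinetically: 10 s baseline, 3 min after compound (agonist portion), then 2 min after EC20 capsaicin (allosteric enhancer portion). Calcium-bound dye fluorescence at 480/520 nm.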
CtBP-E1A blk: blocks the CtBP interaction with E1A | AlphaScreen GST-E1A/His-CtBP binding, 1536-well; stronger effect = lower value; control for the full effect not named in the record | activity change, % (test concentration not listed) | actives 0.49% (n = 340,000); in the data active means activity change below about -65%; inconclusive means about -30% to -65%; inactive means above about -30%; further: on the % scale 0 is the no-effect control and ±100 the full control effect; compound concentration not given in the record
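AlphaScreen with 125 nM GST-E1A and 125 nM His-CtBP (5X stocks) in Tris pH 8.0, 300 mM NaCl, BSA, Tween 20, TCEP. Compounds preincubated 2 h at 37 deg C, then glutathione donor/nickel acceptor beads added for 1 h at 37 deg C in dark.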
D2 potentiator: potentiates the human D2 dopamine receptor allosterically | actives 0.23% (n = 360,000) | potentiation, % (concentration not given with the values) | AID 624464 | P14416 | DiscoveRx D2 beta-arrestin cells, luminescence, 90 min; 100% = 57 uM dopamine signal; active = potentiation of 50% or more; inconclusive = 30% to 50%; inactive = 30% or less;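 further: compound concentration not given in the record; tested on top of an EC20 dose of dopamine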
Target sequence (P14416 whole entry, looked up): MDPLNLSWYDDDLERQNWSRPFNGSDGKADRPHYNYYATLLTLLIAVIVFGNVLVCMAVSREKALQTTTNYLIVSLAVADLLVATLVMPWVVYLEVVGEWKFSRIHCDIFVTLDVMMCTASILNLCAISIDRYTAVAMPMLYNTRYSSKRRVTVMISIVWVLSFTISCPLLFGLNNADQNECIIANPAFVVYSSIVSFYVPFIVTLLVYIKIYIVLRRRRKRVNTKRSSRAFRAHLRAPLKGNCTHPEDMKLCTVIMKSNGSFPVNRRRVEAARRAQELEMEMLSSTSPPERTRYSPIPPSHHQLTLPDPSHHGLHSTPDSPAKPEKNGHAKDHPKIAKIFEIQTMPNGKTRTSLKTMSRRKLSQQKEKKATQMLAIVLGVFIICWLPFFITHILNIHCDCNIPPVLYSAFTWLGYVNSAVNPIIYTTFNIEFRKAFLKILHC
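PathHunter D2 cells, attached overnight at 37 deg C, received compound in DMSO plus dopamine at EC20 (50 nM final) for 90 min at 37 deg C. Beta-arrestin recruitment was read as luminescence after 1 h with detection reagent at ambient temperature.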
TRPML1 ag: human mucolipin-1 channel agonism; actives 0.12% (n = 410,000); TRPML1-expressing cells, Ca2+ dye fluorescence, FDSS; host cell line not named in the record; reference of the full effect not given here; activation, % (no concentration beside the values); AID 624414; in the data active = activation above about 50%; inconclusive = about 30% to 50%; inactive = below about 30%; further: 0% is about no effect; the text of the record puts the active cut at 80%
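Agonist activity was taken from a 110 s kinetic Ca2+ dye read on the FDSS after pinning compounds onto TRPML1-DL cells. The cells were seeded at 1,500/well with Tet inducer, incubated about 16 h, then dye-loaded at room temperature.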
Numbers without * were called inactive; ? = inconclusive; . = no result given. The order is random; any-hit rate near 0.95%.

SMILES	Six1-Eya2 blk	TRPML1 blocker	TRPV1 PAM	CtBP-E1A blk	D2 potentiator	TRPML1 ag
Cc1cc(NS(=O)(=O)c2ccc(NC(=O)c3ccccc3C)cc2)no1	1	3	?	5	3	-0.1
Cc1cc(NC(=O)CN2CCN(c3ccc(O)cc3)CC2)no1	0	-8	-6	3	17	-0.2
Cc1ccsc1C(=O)OCC(=O)Nc1ccc(Cl)cn1	5	-5	.	11	0	-0.1
Cn1ncc(Br)c1C(=O)N1CCc2ccccc21	11	11	-3	28	0	-0.4
CCc1cccc(CC)c1NC(=O)CSc1nnc(C2CC2)n1C	14	1	-8	5	0	-0.3
CC(=O)c1ccc(NC(=O)CSc2nnc(Cn3cnc4ccccc43)o2)cc1	1	24	6	1	-8	-1.3
COc1ccc(S(=O)(=O)N2CCCOC2CNC(=O)C(=O)NCc2ccccn2)cc1 (stereo not given)	-4	13	3	5	8	-0.5
O=S(=O)(Cc1ccc(Cl)cc1Cl)c1ccc(Cl)cc1	1	-4	.	22	-5	2.0
COc1ccc(-c2cc(C(=O)O)[nH]n2)cc1OC	-10	-2	-3	-14	9	-0.1
CCOc1cc(/C=C2/NC(=O)N(CC(=O)Nc3cccc(C)c3)C2=O)ccc1OCC(N)=O	14	-3	10	-10	-3	1.1
Cc1cccc(OCCCC(=O)Nc2ccc(S(=O)(=O)Nc3nccs3)cc2)c1C	-9	-27	1	-1	7	0.2
Cc1cccc(C)c1OCc1cc(C(=O)N(C)Cc2cc(C3CC3)n[nH]2)no1	5	3	-1	0	-12	1.3
Cc1ccccc1-c1nc(C#N)c(N2CCC(C)CC2)o1	-25	78	-5	?	-1	3.2
O=C(CN1CCCC1)Nc1ccc2c(c1)CCC2	-17	11	3	6	-10	-0.6
COCC(C)NC(=O)c1noc2c1CCc1cc(OC)ccc1-2 (stereo not given)	1	-7	2	-1	1	-0.3
O=C(O)COc1ccc(NC(=O)c2ccc3c(c2)C(=O)N(CC2CCCO2)C3=O)cc1 (stereo not given)	1	2	.	4	-11	-0.4
CCOc1ccc(Cc2nnc(SCC(=O)Nc3ccccc3)n(N)c2=O)cc1	9	-6	16	27	-69	3.4
CCCN(CCC)Cc1c(C(=O)N/N=C/c2ccoc2)nnn1-c1nonc1N	-2	11	-9	-15	-7	0.2
CC(C)(C)NC(=O)C12CC3CC(CC(Cl)(C3)C1)C2	0	-6	0	0	-28	0.1
CC(C)C(NC(=O)COc1ccc2ccccc2c1)C(=O)N/N=C/C=C/c1ccccc1 (stereo not given)	2	14	3	3	2	-0.1
COC(=O)c1ccc(C2=NOC(C)(c3sc(-c4ccc(Cl)cc4)nc3C)C2)cc1 (stereo not given)	4	3	?	7	-7	0.8
Cc1ccc(Cl)cc1NC(=O)CNCC(c1ccccc1)N(C)C (stereo not given)	-5	51	10	0	-13	0.1
CCCCCCCN(c1ccccc1)[C@@H]1C[C@H]2CCCC(=O)N3CC[C@@H](C1)[C@@H]23	-22	30	.	-2	-34	-0.2
COC(=O)C1Cc2c([nH]c3ccccc23)CN1 (stereo not given)	1	-6	-29	-7	-1	0.0
CC(=O)Nc1cccc(OCc2cccc([N+](=O)[O-])c2)c1	-11	-16	.	-3	-14	0.0

5 entries out of the list above, ordered by their value in Six1-Eya2 blk, smallest number first.
molecule	Six1-Eya2 blk	TRPML1 blocker	CtBP-E1A blk	D2 potentiator
Cc1cccc(OCCCC(=O)Nc2ccc(S(=O)(=O)Nc3nccs3)cc2)c1C	-9	-27	-1	7
CC(C)(C)NC(=O)C12CC3CC(CC(Cl)(C3)C1)C2	0	-6	0	-28
Cc1cc(NS(=O)(=O)c2ccc(NC(=O)c3ccccc3C)cc2)no1	1	3	5	3
COC(=O)c1ccc(C2=NOC(C)(c3sc(-c4ccc(Cl)cc4)nc3C)C2)cc1 (stereo not given)	4	3	7	-7
CCc1cccc(CC)c1NC(=O)CSc1nnc(C2CC2)n1C	14	1	5	0

Some of these compounds in order of count of non-hydrogen atoms, falling.
SMILES	Six1-Eya2 blk	TRPML1 blocker	TRPV1 PAM	CtBP-E1A blk	D2 potentiator	TRPML1 ag
CC(C)C(NC(=O)COc1ccc2ccccc2c1)C(=O)N/N=C/C=C/c1ccccc1 (stereo not given)	2	14	3	3	2	-0.1
COCC(C)NC(=O)c1noc2c1CCc1cc(OC)ccc1-2 (stereo not given)	1	-7	2	-1	1	-0.3
Cn1ncc(Br)c1C(=O)N1CCc2ccccc21	11	11	-3	28	0	-0.4

Continuation:
SMILES	Six1-Eya2 blk	TRPML1 blocker	TRPV1 PAM	CtBP-E1A blk	D2 potentiator	TRPML1 ag
CCCCN(C(=O)CCC(=O)Nc1cc(C)on1)C(C(=O)NC1CCCC1)c1ccccc1C (stereo not given)	1	9	6	4	-7	-1.7
CCn1ncc(-c2csc(N)n2)c1C	9	14	-9	1	-7	0.0
Cc1ccc2[nH]c(=O)cc(C(=O)OCC(=O)c3ccc(F)cc3)c2c1	2	22	11	3	0	-0.2
O=c1c(O[C@@H]2O[C@H](CO)[C@@H](O)[C@H](O)[C@H]2O)c(-c2ccc(O)cc2)oc2cc(O)cc(O)c12	-6	-19	.	-18	-15	-0.1
CCC(C)(C)NC(=O)C(c1cccn1C)N(Cc1ccccc1)C(=O)Cn1nnc2ccccc21 (stereo not given)	0	6	-4	5	-8	-1.5
CCCCC1=CC2=C(c3ccco3)C(=O)C(C)(OC(=O)c3ccc(OC)cc3)C(=O)C2=CN1CCOC (stereo not given)	-17	-14	-28	-13	-8	0.2
O=S1(=O)C=CC(Nc2ccccc2)C1 (stereo not given)	1	19	4	5	-22	1.0
CC(NC(=O)OCc1ccccc1)C(=O)NCC1CCCO1 (stereo not given)	2	-8	-8	10	3	-0.6
CCC(c1ccccc1)c1noc(CCN(CC)CC)n1 (stereo not given)	4	4	.	-18	-15	-0.2
Cc1ccc(NC(=O)C2CCN(c3ncnc4c3nc3n4CCCCC3)CC2)cc1Cl	-26	-3	?	?	-6	0.6
Cc1ccsc1C(=O)OCC(=O)Nc1sccc1C(N)=O	-3	5	-14	-7	-5	-0.7
CCN(CC)S(=O)(=O)c1ccc(O)c(NC(=O)c2ccc(N3CCOCC3)c([N+](=O)[O-])c2)c1	-9	-2	13	-3	-16	0.4
CC(NC(=O)CNC(=O)C1CCCCC1)c1cccc(Cl)c1 (stereo not given)	0	22	-7	-5	-12	-0.7
N/C(=N\OC(=O)/C=C/c1ccccc1)c1ccc(Br)cc1	7	7	-11	-6	24	-0.3
CCN(CC)S(=O)(=O)c1ccc2c(c1)[nH]c(=S)n2CC	-2	-8	7	2	-3	0.0
O=C(c1noc2c1CCCC2)N1CCc2ccccc2C1	5	-9	-9	8	-2	-0.6
O=C(Nc1ccccc1)c1ccccc1N=Cc1cccc(O)c1	1	-11	6	-11	-2	1.9
CC[C@@]1(C(=O)OC)N[C@H](CN(C)C(=O)Nc2ccc(F)cc2)[C@@H]2C(=O)N(C)C(=O)[C@@H]21	5	27	.	6	-3	-0.5
COc1ccccc1OCC(=O)Nc1cccc(C(=O)N2CCOCC2)c1	2	-4	3	-5	-14	0.5
CC(=O)N1CCN(C(=O)c2[nH]c(C(F)(F)F)nc2-c2ccccc2)CC1	15	2	.	23	5	-0.5
COCCn1c(N)c(Sc2ccccc2)c(=O)[nH]c1=O	36	20	-2	-3	-6	1.5
CC1(C)Nc2ccccc2N(CC(=O)N2CCCCC2)C1=O	15	25	5	-2	-6	0.7
O=C(CSc1nc2ccccc2o1)Nc1ccccc1N1CCCCCC1	-2	6	-18	-3	-6	2.1
Cc1ccc(-n2nc(C(N)=O)nc2-c2ccccc2)cc1	-5	-14	17	.	-10	-0.3
COCC(C)NC(=O)c1cc(OC)cc(OC)c1 (stereo not given)	-2	-8	3	2	-1	-0.1

Results in Six1-Eya2 blk, for 5 of the compounds above:
SMILES | Six1-Eya2 blk
CC(NC(=O)CNC(=O)C1CCCCC1)c1cccc(Cl)c1 (stereo not given) | 0
N/C(=N\OC(=O)/C=C/c1ccccc1)c1ccc(Br)cc1 | 7
CCN(CC)S(=O)(=O)c1ccc2c(c1)[nH]c(=S)n2CC | -2
O=C(c1noc2c1CCCC2)N1CCc2ccccc2C1 | 5
O=C(Nc1ccccc1)c1ccccc1N=Cc1cccc(O)c1 | 1

Other records:
SMILES	Six1-Eya2 blk	TRPML1 blocker	TRPV1 PAM	CtBP-E1A blk	D2 potentiator	TRPML1 ag
CSc1nc(N)cc(=O)[nH]1	8	7	29	3	-9	-0.2
Cc1cc(C)n(-c2cc(O)c(-n3nc(C)cc3C)cc2O)n1	12	-26	-3	0	10	0.4
CCN1C(=O)/C(=C\N2CCN(C(=O)c3ccco3)CC2)SC1=S	-5	-8	-6	6	0	1.5
COc1ccc(OC)c(S(=O)(=O)Nc2cc3c4c(c2)CCC(=O)N4CCC3)c1	-5	-16	?	1	-2	-0.4
Cc1cc(C)c(OCC(=O)OCC(=O)NCC2CCCCC2)c(C)c1	6	1	17	-1	-8	-0.7
CCCCCCCCCC1NC(C(=O)O)Cc2c1[nH]c1ccccc21 (stereo not given)	10	-3	.	3	-11	0.4
CCOc1ccc(C(CC(=O)O)NC(=O)c2cccs2)cc1 (stereo not given)	2	-7	1	2	-17	-0.4
O=C(Oc1ccc(Nc2ncnc3ccccc23)cc1)c1cccnc1	-8	-14	-5	.	-11	0.4
COc1ccc(NC(=O)Nc2cc(C)ccc2OC)cc1	-6	17	?	2	-37	1.7
Cc1cccnc1C(NC(=O)C1CCN(CCCc2ccccc2)CC1)c1ccc(Cl)cc1 (stereo not given)	-5	.	.	-4	-14	0.3
Cc1c(C(=O)NCc2ccccc2F)oc2ccccc12	6	1	-3	-17	-5	1.7
COc1cc(C(=S)N2CCCC2)ccc1O	-1	-4	-2	12	-2	-0.4
Cn1cc(CN2CCCC(C(=O)c3ccc(-c4ccccc4)cc3)C2)cn1 (stereo not given)	1	5	-17	.	-11	0.2
c1ccc(OCCOc2ccccc2-c2nnco2)cc1	9	16	-14	4	-15	0.5

Random excerpt: five records from the list.
SMILES	Six1-Eya2 blk	TRPML1 blocker	TRPV1 PAM	CtBP-E1A blk	D2 potentiator	TRPML1 ag
Cc1cccnc1C(NC(=O)C1CCN(CCCc2ccccc2)CC1)c1ccc(Cl)cc1 (stereo not given)	-5	.	.	-4	-14	0.3
Cn1cc(CN2CCCC(C(=O)c3ccc(-c4ccccc4)cc3)C2)cn1 (stereo not given)	1	5	-17	.	-11	0.2
c1ccc(OCCOc2ccccc2-c2nnco2)cc1	9	16	-14	4	-15	0.5
COc1cc(C(=S)N2CCCC2)ccc1O	-1	-4	-2	12	-2	-0.4
COc1ccc(OC)c(S(=O)(=O)Nc2cc3c4c(c2)CCC(=O)N4CCC3)c1	-5	-16	?	1	-2	-0.4
